WNV NS2B-NS3 inh – WNV NS2B-NS3 proteinase inhibition; AID 577; WNV NS2B-NS3 protease, fluorogenic substrate Ex360/Em465; stronger effect = lower value; actives 0.18% (n = 65,000); z-score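 (tested at a level between 10 and 100 µM)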;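 active = z-score at -3 or under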;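 also: score is relative to mean and spread of the compound wells of a plate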
Target sequence (P06935 1371-1501 limits assumed): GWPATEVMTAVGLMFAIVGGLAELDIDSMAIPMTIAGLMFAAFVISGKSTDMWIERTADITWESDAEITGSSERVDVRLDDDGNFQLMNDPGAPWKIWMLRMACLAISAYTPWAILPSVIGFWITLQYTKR
Target sequence (P06935 1502-1679 limits assumed): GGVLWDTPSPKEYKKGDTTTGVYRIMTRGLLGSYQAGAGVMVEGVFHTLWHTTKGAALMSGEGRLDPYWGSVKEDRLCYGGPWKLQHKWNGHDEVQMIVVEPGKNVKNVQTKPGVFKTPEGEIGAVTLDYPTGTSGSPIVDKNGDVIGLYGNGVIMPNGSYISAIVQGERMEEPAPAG
Hsc70 ATP site – Hsc70 inhibitors, probe displacement, primary screen, biochemical, fluorescence polarization (AID 568) | displacement, % at 20 µM, or IC50 in µM where a hit was titrated | Hsc70 fluorescence polarization, probe displacement; higher % means a stronger effect; strong numbers were not always called active | 83,000 tested, under 10 active;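 active = displacement above 50% without optical interference and an IC50 on retest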;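 also: ATPase domain with a fluorescein-tagged ATP probe; 0% = vehicle and 100% = excess ADP; read after one hour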
MT1-MMP reporter – inhibitors of MT1-MMP promoter transcription, cell-based, luciferase reporter, luminescence (AID 618). MT1-MMP promoter luciferase reporter cells, luminescence. calls from a first round at 10 µM; hits with a dose series show EC50 in µM. actives 0.62% (n = 87,000);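 active = over half of the reporter light lost at 10 µM or EC50 under 50 µM; inactive = the rest and hits that failed the dose series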;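 also: actives suppress MT1-MMP promoter-driven transcription so potencies describe inhibitors; HT1080 fibrosarcoma cells; overnight exposure; toxic or luciferase-blocking compounds were not removed from the actives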
The depositor's hits bear a star; i = inactive; / = no result given; + = active, no number.

mol	WNV NS2B-NS3 inh	Hsc70 ATP site	MT1-MMP reporter
COc1cc(-c2nc(-c3ccccc3)c(-c3cccs3)[nH]2)cc(OC)c1O	/	-6.3%	i
CCOC(=O)C1=C(C)NC(C)=C(C(=O)OCC)C1c1cc2ccc(C)cc2[nH]c1=O	-0.28	1.7%	i
Cc1c(NC(=O)CSc2ccccc2C(=O)Nc2cccnc2)c(=O)n(-c2ccccc2)n1C	-1.36	-6.3%	i
CCC(=O)Nc1cc(-c2nn(C)c(=O)c3ccccc23)ccc1N1CCCCC1	-0.15	-0.4%	i
Cc1ccn2cc(-c3ccc(S(=O)(=O)N4CCOCC4)cc3)nc2c1	-0.22	-1.6%	i
CCCC(C)c1nnc(NC(=O)C2CCCO2)s1 (stereo unspecified)	0.32	0.9%	i
Cc1ccc(S(=O)(=O)c2c(N)n(C)c3nc4ccccc4nc23)cc1	1.98	5.9%	i
COc1cccc(C2C(C#N)=C(N)OC(C(C)(C)C)=C2C#N)c1 (stereo unspecified)	0.79	-6.4%	i
CC1CN(C2CCN(C(=O)COc3ccccc3)CC2)CC(C)O1 (stereo unspecified)	0.23	-3.8%	i
CCN(CC)S(=O)(=O)c1cccc(-c2nnc(SCC(=O)NC3CCCCCCC3)n2N)c1	/	2.6%	i
O=C(c1c[nH]c2ccc(S(=O)(=O)N3CCOCC3)cc2c1=O)N1CCN(c2ccccn2)CC1	-0.19	-1.8%	i
CCCCCn1c(CN2CCN(Cc3ccccc3)CC2)nc2c1c(=O)n(C)c(=O)n2C	1.04	1.2%	i
CCCn1c(C(C)NC(C)=O)nc2ccccc21 (stereo unspecified)	-0.23	4.7%	i
CC1CCc2nc(NC(=O)C3CCCO3)sc2C1 (stereo unspecified)	-0.07	2.7%	12.4µM*
COc1ccc2c(c1)CC/C(=C\C=C\c1ccccc1OC)C2=O	/	-3.2%	i
CCCN(CCC)CCNS(=O)(=O)c1ccc2c(c1)CCN2C(=O)C1CCC1	/	1.6%	i
CC(C)[C@H](NC(=O)Nc1ccccc1F)C(=O)O	/	-8.6%	i
CC(Sc1ccccc1)C(=O)Nc1ccc(S(=O)(=O)N2CCOCC2)cc1 (stereo unspecified)	-0.35	2.9%	i
Cc1cc(-c2[nH]nc3c2C(c2cccc(O)c2)C(C#N)=C(N)O3)c(C)s1 (stereo unspecified)	/	-3.5%	i
COc1ccc(S(=O)(=O)N2CCC(C(=O)N3CCOCC3)CC2)cc1	/	7.0%	i
CSc1ccccc1C(=O)N1CCOCC1	-0.73	0.0%	i
CCN(CC)CCNc1nc2c(c(=O)[nH]c(=O)n2C)n1CCOc1ccccc1	-0.19	-1.4%	i
O=C(c1cccs1)c1coc2ccc(O)c(CN3CCOCC3)c12	-1.08	-4.2%	i
CN(Cc1ccccc1)S(=O)(=O)c1ccc2[nH]c(=O)oc2c1	-0.22	1.2%	i
CSCC[C@H](NC(=O)OC(C)(C)C)c1nnc(SCc2ccccc2)o1	0.82	1.7%	i
CN(Cc1ccccc1)c1nc2c(c(=O)[nH]c(=O)n2C)n1CCCSc1ncccn1	0.06	3.1%	i
CC(=C1C(=O)c2ccccc2C1=O)N1CCc2ccccc2C1	-0.69	-4.4%	i
CC(=O)c1cnc2c(-c3ccccc3)c(C)nn2c1C	/	-0.6%	i
CCOC(=O)c1ccc(CNC(=O)c2cc(C(C)(C)C)oc2C)o1	1.37	3.2%	i
CCOC(=O)c1sc(NS(=O)(=O)c2ccccc2Cl)nc1C	/	1.2%	i

Molecules above that have a halogen (two):
mol	WNV NS2B-NS3 inh	Hsc70 ATP site	MT1-MMP reporter
CC(C)[C@H](NC(=O)Nc1ccccc1F)C(=O)O	/	-8.6%	i
CCOC(=O)c1sc(NS(=O)(=O)c2ccccc2Cl)nc1C	/	1.2%	i

Further results follow.
mol	WNV NS2B-NS3 inh	Hsc70 ATP site	MT1-MMP reporter
COCC(=O)Nc1nnc(COc2ccccc2)s1	-0.1	-4.0%	i
O=C(CN1C2=NCCN2c2ccccc21)c1ccco1	-0.78	1.8%	i
CCN(CC)c1ccc(NC(=O)Nc2ccc(C(C)=O)cc2)cc1	-0.18	-3.2%	i
Cc1cccc(N2CCN(C(=O)CCCn3c(=S)[nH]c4cc5c(cc4c3=O)OCO5)CC2)c1C	-0.19	1.2%	i
Cc1nn(C(C)(C)C)c(OC(=O)c2cccs2)c1Sc1ccccc1	/	-2.3%	i
COc1ccc(C2CC(=O)N3C(=C2C#N)SCC3(O)c2ccccc2)cc1 (stereo unspecified)	-0.06	-0.6%	i
CS(=O)(=O)c1nc(-c2ccccc2)cc(C(F)(F)F)n1	-1.7	-8.2%	+
CCN1CCCC1CN(Cc1cc2cc(OC)ccc2[nH]c1=O)C(=O)NCc1ccccc1 (stereo unspecified)	0.67	-9.9%	i
C1CCC(NC2=NCCC2)CC1	/	-3.2%	i
C=CCOC(=O)C(C#N)c1nc2ccccc2nc1N1CCN(c2ccccc2OCC)CC1 (stereo unspecified)	-0.93	-8.3%	i
Cc1cc(NCc2ccccn2)nc2ccccc12	/	-1.3%	i
CC1CN(S(=O)(=O)c2ccc(C(=O)Nc3sc4c(c3C(N)=O)CCN(C)C4)cc2)CC(C)O1 (stereo unspecified)	0.39	-16.4%	i
COc1ccc(OC)c(/C=N/c2oc(-c3ccco3)c(-c3ccco3)c2C#N)c1	-0.91	69.1%	i
Cn1cc(Cl)c(-c2nc3ccccc3[nH]2)n1	-0.79	4.2%	i
CN(Cc1ccccc1)Cc1c[nH]c2ccccc12	0.51	-1.6%	i
COc1ccccc1NC(=O)c1ccc(C)s1	0.44	8.2%	i
CC/C(C)=C1\SC(N2CCN(c3cccc(C(F)(F)F)c3)CC2)=NC1=O	/	-2.9%	i
CC(=O)c1ccc(N2C(=NC(=O)C(C)C)SC3CS(=O)(=O)CC32)cc1 (stereo unspecified)	-0.19	2.8%	i
CCc1ccc(N2CC(C(=O)Nc3cc(C)ccc3F)CC2=O)cc1 (stereo unspecified)	0.48	-7.3%	i
O=C(O)c1ccc2c(c1)OCCO2	/	2.5%	i
Cc1c(NC(=O)C(C)Sc2nc3ccccc3c(=O)n2CCO)c(=O)n(-c2ccccc2)n1C (stereo unspecified)	-0.59	-2.0%	i
C=CCN(C(=O)Nc1ccc(F)cc1)C1CC(=O)N(c2ccc(OC)cc2)C1=O (stereo unspecified)	-0.72	-2.8%	i
CCC(=O)N1c2ccccc2-c2nnc(SC)nc2OC1c1ccc(N(C)C)cc1 (stereo unspecified)	-0.56	-0.6%	i
COc1cccc(-c2ccc(=O)n(CC(=O)Nc3cc4c(cc3NC(C)=O)OCCO4)n2)c1	0.24	0.0%	i
COc1ccc(C(=O)OCCN2C(=O)c3ccccc3C2=O)cc1	-0.55	3.1%	i
O=C(Nc1ccc(F)cc1)C1CCN(c2nnnn2-c2ccccc2)CC1	-0.95	-4.6%	i
CCCCCC(=O)NC(NC(=S)NC1CCS(=O)(=O)C1)C(Cl)(Cl)Cl (stereo unspecified)	/	1.1%	i
COc1cc(-c2noc(CCCC(=O)NCc3ccco3)n2)cc(OC)c1OC	-0.81	-2.7%	i
CCCNC(=O)NC(=O)CSc1ccc2c(c1)OCCO2	/	2.5%	i
CC(C)[C@H](NC(=O)Nc1cccc(C(F)(F)F)c1)C(=O)O	0.32	1.3%	i

(list continues)
canonical_smiles | WNV NS2B-NS3 inh | Hsc70 ATP site | MT1-MMP reporter
O=C(Nc1ccc(F)cc1)c1sc2cc(C(F)(F)F)cnc2c1-c1cccs1 | / | -4.1% | i
Cc1ccc2nc(Nc3nc(C)cc(C(F)(F)F)n3)nc(C)c2c1 | -1.17 | -0.7% | i
COc1ccc(OC)c(N2C(=O)CC(Cc3cc(C)cc(C)c3)C2=O)c1 (stereo unspecified) | / | 2.5% | i
CC(C)(C)NC(=O)CSc1n[nH]c(=O)n1-c1ccccc1 | 1.36 | 7.9% | i
COc1ccc2c(c1)sc1nc(-c3ccccc3)cn12 | 0.74 | 0.9% | +
CCC(C)NS(=O)(=O)c1ccc(OCC(=O)N2CCCC2)cc1 (stereo unspecified) | / | 1.3% | i
CC(=O)c1ccc(OCC(O)CN2CCN(Cc3ccc4c(c3)OCO4)CC2)cc1 (stereo unspecified) | -0.09 | 4.1% | i
Cn1cccc1Cc1nnc(SCC(=O)Nc2cccc(Cl)c2)n1-c1ccc(F)cc1 | -0.14 | -0.9% | i
COc1cc(C2C3C(=O)N(Cc4ccccc4)C(=O)C3ON2c2ccccc2)cc(OC)c1OC (stereo unspecified) | 1.13 | -3.3% | i
Cc1cc(C)n(C2CCCCC2OC(=O)c2ccccc2F)n1 (stereo unspecified) | / | 3.2% | i
Cc1ccc(N(CC(=O)NCc2ccccc2Cl)S(=O)(=O)c2cccs2)cc1 | / | 0.5% | i
COc1ccccc1N1CCN(C(c2ccc(Cl)cc2)c2nnnn2C(C)(C)C)CC1 (stereo unspecified) | -0.06 | -0.2% | i
O=C(CSc1nnc(CN2CCOCC2)n1-c1ccccc1)Nc1ccc(Cl)cc1 | 1.43 | 4.4% | i
Cc1nnc(C)n1/N=C/c1cccnc1 | / | 9.0% | i
Cc1cccc2cc(CN(Cc3cccs3)C(c3nnnn3C3CCCC3)C(C)C)c(=O)[nH]c12 (stereo unspecified) | 0.76 | -1.4% | i
CC(O)CCc1nc2ccc(C(=O)O)cc2[nH]1 (stereo unspecified) | -1.87 | -2.2% | i
Cc1ccc(S(=O)(=O)N2CCCC(C(=O)O)C2)s1 (stereo unspecified) | -0.7 | 1.6% | i
COC(=O)c1c(NC(=O)c2ccco2)sc(C)c1C | -0.59 | -4.8% | i
Cc1ccccc1OCC(=O)N1N=C(C(F)(F)F)CC1(O)C(C)(C)C (stereo unspecified) | / | -0.4% | i
CCN(CC)S(=O)(=O)c1cccc(C(=O)N[C@H](C(=O)O)C(C)C)c1 | / | -6.7% | i
O=C(O)c1cc2c([nH]c1=O)CCCC2 | -0.45 | 3.6% | i
CCCCSc1c(C)c2cc3c(cc2[nH]c1=O)OCO3 | -0.31 | -4.3% | i
c1ccc2cc(Sc3ncnc4c3oc3ccccc34)ccc2c1 | / | -3.4% | i
Cc1nc2ccccc2c(=O)n1NC(=O)c1ccc(F)cc1Cl | -0.77 | 6.0% | i
CC1CCCN(C(=O)Cn2c(-c3nonc3N)nc3ccccc32)C1 (stereo unspecified) | -1.1 | -0.9% | i

Reprinted at random: 5 compounds from above.
canonical_smiles | WNV NS2B-NS3 inh | Hsc70 ATP site | MT1-MMP reporter
Cc1ccccc1OCC(=O)N1N=C(C(F)(F)F)CC1(O)C(C)(C)C (stereo unspecified) | / | -0.4% | i
O=C(O)c1cc2c([nH]c1=O)CCCC2 | -0.45 | 3.6% | i
Cc1cc(C)n(C2CCCCC2OC(=O)c2ccccc2F)n1 (stereo unspecified) | / | 3.2% | i
Cc1nnc(C)n1/N=C/c1cccnc1 | / | 9.0% | i
COc1cc(C2C3C(=O)N(Cc4ccccc4)C(=O)C3ON2c2ccccc2)cc(OC)c1OC (stereo unspecified) | 1.13 | -3.3% | i

(cont.)
canonical_smiles | WNV NS2B-NS3 inh | Hsc70 ATP site | MT1-MMP reporter
CCOC(=O)C(NCc1ccc2c(c1)OCO2)(NC(=O)CC)C(F)(F)F (stereo unspecified) | -0.59 | 3.1% | i
CN(C)c1ccc(C(=O)c2ccccc2)cc1 | / | -1.4% | i
COC(=O)C1CCN(C(=O)CCCOc2ccccc2)CC1 | -0.38 | 2.7% | i
Cc1cc(C)c(C)c(S(=O)(=O)Nc2ccccc2C(=O)NCCCn2ccnc2)c1C | 0.99 | 3.8% | 1.82µM*
O=C(c1ccccc1)N1CCC(c2nc(-c3ccc(S(=O)(=O)NCC4CCCO4)cc3)no2)CC1 (stereo unspecified) | / | 5.1% | i
Cc1c([C@H]2[C@@H](CC#N)C2(C)C)c2ccccc2n1C | -0.93 | 1.9% | i
Cc1nn(Cc2ccc(F)cc2)c(C)c1NC(=O)c1noc2c1CCCCC2 | -0.31 | -3.3% | i
CC(=O)NC1=NC(=O)/C(=C/N2CCCCC2)S1 | 0.01 | -0.2% | i
Cn1cccc1C(=O)OCC(=O)Nc1cc(C(C)(C)C)nn1-c1ccccc1 | 0.5 | -0.9% | i
COC(=O)c1ccc(NC(=O)c2sc3nc(-c4ccccc4)cn3c2C)cc1 | -0.84 | -7.4% | i
N#Cc1nc(-c2cccs2)oc1NCC1CCCO1 (stereo unspecified) | 2.34 | -6.3% | i
O=C(CN1C(=O)c2cccc3cccc1c23)Nc1ccc(S(=O)(=O)N2CCOCC2)cc1 | -0.82 | -4.6% | i
NC(=O)NC(=O)Nc1ccccc1Cl | -0.11 | 0.0% | i
CC1(C)CC(=O)C(C#N)=C(NCCCO)C1 | 0.47 | 3.6% | i
Nc1ccc(-n2ccnc2)cc1 | -0.17 | 3.1% | i
O=C(c1ccco1)N1CCN(C2CC(=O)N(c3ccc4c(c3)OCO4)C2=O)CC1 (stereo unspecified) | 0.07 | 2.0% | i
Cn1ncc(Cl)c1C(=O)N1CCc2ccccc21 | -0.07 | -2.2% | i
CN(C)c1ccc(C2C3=C(CCCC3=O)OC3=C2C(=O)CCC3)cc1 | 0.61 | 2.9% | i
CCOC(=O)CSc1nnc(-c2ccco2)n1C | -0.75 | 5.9% | i
Cc1cccc(C(=O)NCCN2CCCC2)c1 | / | 3.1% | i

Screening results deposited in PubChem by several laboratories.
